# SARS PLpro yeast = qHTS of Yeast-based Assay for SARS-CoV PLP; AID 485353, 2010; S. cerevisiae expressing SARS-CoV PLpro, growth rescue; control for the full effect not named in the record; hit rate 0.19% among 330,000; Potency, µM (titrated, usually from 32.9 µM), for inactives: at the highest dose activity, positive = growth rescue; further: 0% is about no effect; nearly all actives have a fitted effect of over 55% in size; growth read by luminescence after 48 h
# LASV entry inh = qHTS for Inhibitors of binding or entry into cells for Lassa Virus | Lassa virus pseudotype entry inhibition, cell reporter; control for the full effect not named in the record | Potency, µM (series often up to 37.9 µM), without a hit: at the top dose activity change, negative = inhibition, hits mostly inhibitors | hit rate 1.2% among 300,000 | AID 540256, 2011; active means well fitted inhibition curve with a large enough effect; inconclusive means small, poorly fitted or top-dose-only effect, or effect the other way; inactive means flat fitted curve, though single readings scatter; tested in HEK293 cells; further: on the % scale 0 is the no-effect control and ±100 the full control effect; nearly all actives have a fitted effect of over 50% in size; luciferase read-out
# MARV entry inh = qHTS for inhibitors of binding or entry into cells for Marburg Virus. Marburg virus pseudotyped entry inhibition, cell reporter; control for the full effect not named in the record; about a third of the inactives were read at about 46 µM. Potency, µM (top dose mostly 37.8 µM), for inactives: at the highest dose activity change, negative = inhibition, most hits filed as inhibitors. hit rate 1.8% among 300,000. AID 540276, 2011; active = well fitted inhibition curve with a large enough effect; inconclusive = small, poorly fitted or top-dose-only effect, or effect the other way; inactive = flat fitted curve, though single readings scatter; tested in HEK293 cells; about a fifth of its hits are not listed in these tables; further: on the % scale 0 is the no-effect control and ±100 the full control effect; luciferase read-out
# NS1 inh = qHTS Assay for Inhibitors of Influenza NS1 Protein Function; hit rate 0.4% among 270,000; Potency, µM (titrated, usually from 46.1 µM), for inactives: at the highest dose activity, positive = more growth; AID 2326, 2010; S. cerevisiae slowed by influenza A NS1, growth recovery by OD600; further: actives are rising curves; nearly all actives have a fitted effect of over 50% in size
#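 Growth recovery, yeast-based: influenza A NS1 expressed in S. cerevisiae causes slow growth, and suppressors are detected by OD600. The parent strain without NS1 is used as positive control.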
# StopGo reporter = High Throughput Screening for Foot and Mouth Disease Virus Antivirals. human cells with a luciferase reporter of 2A StopGo recoding; control for the full effect not named in the record. Potency, µM (top dose mostly 57.9 µM), inactives show at the highest dose signal change, negative = less light. hit rate 1.2% among 410,000. AID 1159524, 2015; active = well fitted falling curve with a large enough effect; inconclusive = small, poorly fitted or top-dose-only effect; inactive = no such curve, though single readings can be large or run the other way; tested in HEK293T cells; further: on the % scale 0 is the no-effect control and ±100 the full control effect; nearly all actives have a fitted effect of over 45% in size; luciferase light after 4 h
# Cruzain Triton = qHTS Assay for Promiscuous and Specific Inhibitors of Cruzain (with detergent); Potency, µM, for inactives: max response, negative = inhibition, most hits filed as inhibitors; Cruzipain (Trypanosoma cruzi), P25779; hit rate 0.43% among 200,000; purified cruzain, Z-FR-AMC fluorescence, 0.01% Triton; active means well fitted curve in the direction sought with a large enough effect; inconclusive means small, poorly fitted or top-dose-only effect, or another doubt; inactive means no such curve, though single readings can be large; an effect the other way counts as inactive or inconclusive;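 further: plate controls were neutral wells for no effect and buffer without enzyme for full effect; nearly all actives have a fitted effect of over 40% in size; top concentration of the series not given in the record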
# Target sequence (P25779 123-467 limits assumed): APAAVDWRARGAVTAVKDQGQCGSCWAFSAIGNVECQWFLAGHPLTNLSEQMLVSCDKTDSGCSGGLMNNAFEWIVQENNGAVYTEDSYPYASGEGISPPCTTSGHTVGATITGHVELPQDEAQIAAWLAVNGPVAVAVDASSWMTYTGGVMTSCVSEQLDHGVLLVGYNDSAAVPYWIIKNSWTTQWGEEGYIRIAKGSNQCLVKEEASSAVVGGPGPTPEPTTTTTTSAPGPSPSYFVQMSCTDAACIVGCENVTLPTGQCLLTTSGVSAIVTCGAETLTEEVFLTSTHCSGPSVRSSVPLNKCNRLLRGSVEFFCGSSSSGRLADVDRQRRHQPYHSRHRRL
#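 Cruzain (1.5 nM) preincubated 15 min at RT with compound in 100 mM sodium acetate pH 5.5, 5 mM DTT, 0.01% Triton X-100. Reaction started with 2 uM Z-FR-AMC; AMC fluorescence (ex 360/em 450 nm) change over 60 s gave rate.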
# Cruzain inh noDet = qHTS Assay for Promiscuous and Specific Inhibitors of Cruzain (without detergent). purified cruzain, Z-FR-AMC fluorescence, no detergent. Potency, µM, for inactives: max response, negative = inhibition, most hits filed as inhibitors. hit rate 2.3% among 200,000. AID 1476, 2009. Cruzipain (Trypanosoma cruzi), P25779; active means well fitted curve in the direction sought with a large enough effect; inconclusive means small, poorly fitted or top-dose-only effect, or another doubt; inactive means no such curve, though single readings can be large; an effect the other way counts as inactive or inconclusive;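 further: plate controls were enzyme without inhibitor for no effect and buffer without enzyme for full effect; nearly all actives have a fitted effect of over 40% in size; top concentration of the series not given in the record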
#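 Purified cruzain at 1.5 nM, pre-incubated 15 min with compound at room temperature in 100 mM sodium acetate pH 5.5, 5 mM DTT, 0.00005% Triton X-100. Reaction started with 2 uM Z-FR-AMC; AMC fluorescence increase over 60 s gives rate.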
# RE007 growth inh = qHTS Assay for Inhibitors of the HIV-1 protein Vpr. S. pombe RE007 Vpr strain, BacTiter-Glo ATP luminescence, 24 h; control for the full effect not named in the record. Potency, µM (highest dose often 92.2 µM), for inactives: at the highest dose activity change, negative = less growth. hit rate 0.21% among 360,000; active = well fitted falling curve with a large enough effect; inconclusive = small, poorly fitted or top-dose-only effect; inactive = no such curve, though single readings can be large or run the other way;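 further: on the % scale 0 is the no-effect control and ±100 the full control effect; nearly all actives have a fitted effect of over 50% in size; the assay follows cell death caused by Vpr and the record does not say whether a fall means rescue or toxicity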
#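 Fission yeast RE007 carrying one integrated HIV-1 vpr copy, seeded at OD 0.01 in PMG+AL medium with 23 nL pinned compound. Grown 24 h at 30 degrees; viability read by BacTiter-Glo luminescence after 5 min.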
# * marks the source's active call; other numbers are inactive results; ? = inconclusive; · = no result given; & = joins results of further samples; [ ] = another dose, or the depositor's remark. Unless noted, the call rests on the fitted dose curve; in most records, active means well fitted rising curve with a large enough effect; inconclusive means small, poorly fitted or top-dose-only effect; inactive means no such curve, though single readings can be large or run the other way. Potency means the concentration at half of the fitted maximal effect.
SMILES,SARS PLpro yeast,LASV entry inh,MARV entry inh,NS1 inh,StopGo reporter,Cruzain Triton,Cruzain inh noDet,RE007 growth inh
CN(C)C(CNc1ncccn1)c1ccccc1 (stereo not drawn),1%,6%[46.1 µM],?,5%,14%,·,·,5%
CC12CC3CC(C)(C1)CC(C(=O)N1CCCC1)(C3)C2,8%,-1%[46.1 µM],-4%[46.1 µM],-17%,16%,·,·,12%
CC(=O)c1ccc(N2CCN(C(=O)C3CCN(S(=O)(=O)c4ccc(Br)s4)CC3)CC2)cc1,·,?,?,·,?,-3.0%,-9%,·
COc1cc(C(=O)N2CCN(c3ccc([N+](=O)[O-])cc3)CC2)ccc1OCc1c(C)noc1C,-3%,-12%,-21%,-1%,-17%,-4.1%,?,-11%
Cc1ccc(C(=O)N2CCN(C)CC2)cc1S(=O)(=O)N1CCCCCC1,-3%,15%[46.1 µM],4%[46.1 µM],8%,8%,·,·,1%
COc1ccc(Cl)cc1C(=O)NNC(=O)c1cccnc1,-1%,9%,4%,5%,·,4.4%,-9%,7%
Cc1noc(NS(=O)(=O)c2ccc(NC(=O)c3oc4ccc(F)cc4c3C)cc2)c1C,-4%,21%[46.1 µM],17%[46.1 µM],-18%,-6%,·,·,-5%
CC(C)NC(=O)C1CCC(Cn2c(=O)c3sccc3n(Cc3ccc(F)cc3)c2=O)CC1 (stereo not drawn),·,13%[46.1 µM],·,·,-16%,-0.1%,2%,·
CN(CC(=O)Nc1c(Cl)cccc1Cl)C(=O)CCC1CCCC1,-1%,11%[46.1 µM],1%[46.1 µM],-9%,-1%,·,·,1%
O=C(CSc1nc2c(cnn2-c2ccc(F)cc2)c(=O)[nH]1)Nc1ccc(Br)cc1,·,?,?,·,-4%,0.3%,-2%,·
Cc1cc(C(=O)N/N=C/c2ccccc2Br)no1,-9%,?,14%,-15%,94%[activator],-1.1%,3%,-4%
Cc1ccc(-c2nc(-c3ccccc3)no2)cc1,-2%,?,?,2%,11µM*,4.0%,-16%,-10%
Cc1ccc(CSCCNC(=O)CSCc2ccc([N+](=O)[O-])cc2)cc1,-7%,3%,-3%,-8%,-27%,-9.2%,9%,-11%
CCN(CC(=O)Nc1ccccc1SC)Cc1nc2ccccc2c(=O)[nH]1,1%,1%,-2%[46.1 µM],-2%,-24%,·,·,20%
Cc1c(Cl)cccc1NC(=O)Cn1cc(C(F)(F)F)cc(Cl)c1=O,1%,1%,-2%[46.1 µM],1%,8%,·,·,1%
c1ccc(-c2nnc(OCC3CCCO3)c3ccccc23)cc1 (stereo not drawn),0%,9%,-7%[46.1 µM],-12%,1%,·,·,9%
CCOC(=O)c1cn2nc(SCc3ccccc3)nc2nc1C,-6%,-2%,-5%,-32%,23%,·,·,-29%
COc1ccc(OCc2cn3c(C)cc(C)nc3n2)cc1,15%,1%,?,-13%,18%,-3.4%,-11%,1%
O=C(COC(=O)c1ccc(F)cc1F)NCCC1=CCCCC1,-1%,6%,18%,·,-4%,·,·,33%
O=C(CSc1nnc(NC(=O)c2ccco2)s1)Nc1cccc(F)c1,-1%,?,-11%,-12%,20%,·,·,-19%
CC(=O)N1c2ccc(S(=O)(=O)N3CCCC(C(=O)NC4CCCC(C)C4C)C3)cc2CC1C (stereo not drawn),-2%,-18%[46.1 µM],-26%[46.1 µM],5%,-11%,·,·,-3%
O=C(CN1CCCC1)Nc1cccc(Cl)c1,-1%,·,·,1%,12%,·,·,4%
CCOC(=O)c1nnc(-c2cccs2)nc1NC(C)C,3%,16%,27%,-51%,-16%,-6.5%,11%,13%
Cc1ccc(Nc2nc(NCCO)c3ccccc3n2)cc1C,-5%,17%[46.1 µM],?,-51%,-18%,·,·,-20%
CCOC(=O)CNC(=O)CSc1ncnc2c1cnn2-c1ccc(C)cc1,0%,?,?,1%,9%,-1.8%,-6%,20%

# 2 entries from above, with each value named.
CCOC(=O)c1cn2nc(SCc3ccccc3)nc2nc1C
  SARS PLpro yeast: -6%; LASV entry inh: -2%; MARV entry inh: -5%; NS1 inh: -32%; StopGo reporter: 23%; Cruzain Triton: ·; Cruzain inh noDet: ·; RE007 growth inh: -29%
COc1ccc(OCc2cn3c(C)cc(C)nc3n2)cc1
  SARS PLpro yeast: 15%; LASV entry inh: 1%; MARV entry inh: ?; NS1 inh: -13%; StopGo reporter: 18%; Cruzain Triton: -3.4%; Cruzain inh noDet: -11%; RE007 growth inh: 1%

# Additional compounds follow.
SMILES,SARS PLpro yeast,LASV entry inh,MARV entry inh,NS1 inh,StopGo reporter,Cruzain Triton,Cruzain inh noDet,RE007 growth inh
O=C(NCCc1c[nH]c2ccccc12)[C@@H]1C[C@H]1[C@@H](NP(=O)(c1ccccc1)c1ccccc1)c1ccccc1,2%,?,?,?,·,-4.6%&-3.2%,28%&16%,·
COc1cc(C2NC(=O)NC(C)=C2C(=O)OC2CCCCC2)cc(Br)c1O (stereo not drawn),2%,?,-5%,-4%,-2%,-7.1%,7%,-10%
O=C(COc1ccc(Br)cc1)Nc1nc(-c2cccnc2)cs1,0%,·,·,-1%,-8%,·,·,10%
O=C1c2ccccc2C(=O)c2c(NCc3cccnc3)cccc21,-5%,4%,6%,-2%,-13%,2.8%,4%,2%
CCOC(=O)N1CCN(C(=O)CSc2nc3ccccc3c(=O)n2-c2ccccc2)CC1,6%,8.9µM*,-28%,-9%,?,-2.2%,5%,9%
CC(C)(C)C(=O)N(Cc1ccc(Cl)cc1)Cc1cccnc1,-2%,·,·,-49%,-13%,·,·,-19%
CCS(=O)(=O)Nc1cccc(C2=NN(S(=O)(=O)c3ccccc3)C(c3ccco3)C2)c1 (stereo not drawn),4%,?,-4%,3%,8%,·,·,-6%
O=C(NCCc1ccc2c(c1)OCCO2)c1ccc(F)cc1,3%,-16%,?,-16%,-9%,-1.4%,-9%,11%
Cc1nc2cc(C(=O)NCCC3=CCCCC3)ccc2n1-c1ccc(Br)cc1,·,-2%[46.1 µM],·,·,-20%,-5.8%,9%,·
C[C@@H]1CCC(=O)N(CC[C@H](N=[N+]=[N-])c2ccccc2)CC1,-10%,·,·,-6%,18%,·,·,2%
COc1ccc(CNc2nc3c(-c4ccc(C)cc4)nnn3c3ccccc23)cc1,·,20%[46.1 µM],?,·,20%,-3.2%,15%,·
O=C(c1cc(C2CC2)nn1-c1ccccc1)N1CCN(S(=O)(=O)c2c(F)cccc2F)CC1,10%,?,?,·,-18%,·,·,15%
CCN1CCN(C(=O)CSc2cc(=O)n(C)c3ccccc23)CC1,2%,6%,0%[46.1 µM],·,-6%,·,·,1%
COCCNC(=O)c1cc(-c2ccc(OC)c(OC)c2)on1,-5%,-13%,?,-8%,44%[activator],3.5%,-1%,3%
Clc1ccc(OCCSc2ncccn2)c(Br)c1,-4%,-25%,?,-33%,-13%,·,·,-17%
COc1ccc(NS(=O)(=O)c2ccc(N3CC(O)=C(c4ccccc4)C3=N)cc2)cc1,-1%,?,-2%[46.1 µM],6%,-20%,·,·,-12%
CCC(Sc1ncc(S(=O)(=O)c2ccc(C)cc2)c(=O)[nH]1)C(=O)Nc1cc(C)ccc1C (stereo not drawn),·,·,?,·,-3%,4.3%,15%,·
N#C/C=C1/NC(=O)c2ccccc2S1,1%,1%,-2%,4%,-6%,-2.4%,-9%,-9%
CCCCOc1ccc(NC(=O)CN2CCN(CC)CC2)cc1,10%,10%,0%,-2%,13%,·,·,0%
COc1cc(C(=O)NCc2nnc(SCC(=O)N3CCCC3)o2)cc(OC)c1OC,8%,11%[46.1 µM],-7%[46.1 µM],9%,-7%,·,·,6%
CCCc1cc(=O)oc2c(CN3CCCC3)c(O)ccc12,-3%,7%,15%&15%,-5%,-4%,25µM*,?,-7%
CC(=O)c1cccc(NC(=S)NC2CCCCC2)c1,5%,4%,?,4%,46%[activator],-3.0%,12%,-3%
FC(F)(F)c1nc2nc(Cl)c(Cl)nc2n1CCCN1CCOCC1,·,·,·,-8%,-27%,-3.8%,-3%,-21%
COc1ccccc1C1CC(=O)NC(C)=C1C(=O)OC1CCCCCC1 (stereo not drawn),·,-18%[46.1 µM],-18%[46.1 µM],·,?,-4.3%,-5%,·
CCOC(=O)C1=C(CC)Nc2ccccc2N=C1NC(=O)Nc1ccc(Cl)c(Cl)c1,-40%,?,?,-223%,-17%,-5.2%,?,-23%

# The final 2 records of the section before are carried over, then new ones follow.
SMILES,SARS PLpro yeast,LASV entry inh,MARV entry inh,NS1 inh,StopGo reporter,Cruzain Triton,Cruzain inh noDet,RE007 growth inh
COc1ccccc1C1CC(=O)NC(C)=C1C(=O)OC1CCCCCC1 (stereo not drawn),·,-18%[46.1 µM],-18%[46.1 µM],·,?,-4.3%,-5%,·
CCOC(=O)C1=C(CC)Nc2ccccc2N=C1NC(=O)Nc1ccc(Cl)c(Cl)c1,-40%,?,?,-223%,-17%,-5.2%,?,-23%
O=c1oc2ccccc2c(NC2CCCCC2)c1NS(=O)(=O)c1ccc(Br)cc1,0%,-21%[46.1 µM],-5%[46.1 µM],8%,-21%,·,·,-11%
CC(=O)Nc1nonc1-c1nnc(SCc2cccc(Br)c2)n1C,·,-10%[46.1 µM],6%[46.1 µM],·,-13%,-1.1%,2%,·
S=C(NCc1cccs1)Nc1ccccc1,8%,-1%,-8%,-5%,31%[activator],-2.1%,-5%,-6%
CC(C)c1nnc(NC(=O)CC(C)c2ccccc2)s1 (stereo not drawn),-1%,-6%,-17%,17%,28%,·,·,-9%
Cc1cc(Cl)ccc1OCC(=O)Nc1ccccc1CO,-7%,?,3%,-39%,17%,-6.6%,-5%,-27%
CCOc1ccc(S(=O)(=O)NN)cc1,-3%,8%,-5%,-1%,-9%,1.3%,8%,-1%

# Screening data as filed in PubChem.
